# VDR inhibitor: vitamin D3 receptor (human) inhibition. AID 504847. Potency, µM, inactives show max response, negative = inhibition, hits mostly inhibitors. VDR-SRC2-3 peptide fluorescence polarization, 2 h. 400,000 tested, 0.93% active. P11473; active = well fitted inhibition curve with a large enough effect; inconclusive = small, poorly fitted or top-dose-only effect, or another doubt; inactive = no such curve, though single readings can be large or run the other way; note: series mostly up to about 120 µM
# Target sequence (P11473 whole entry, looked up): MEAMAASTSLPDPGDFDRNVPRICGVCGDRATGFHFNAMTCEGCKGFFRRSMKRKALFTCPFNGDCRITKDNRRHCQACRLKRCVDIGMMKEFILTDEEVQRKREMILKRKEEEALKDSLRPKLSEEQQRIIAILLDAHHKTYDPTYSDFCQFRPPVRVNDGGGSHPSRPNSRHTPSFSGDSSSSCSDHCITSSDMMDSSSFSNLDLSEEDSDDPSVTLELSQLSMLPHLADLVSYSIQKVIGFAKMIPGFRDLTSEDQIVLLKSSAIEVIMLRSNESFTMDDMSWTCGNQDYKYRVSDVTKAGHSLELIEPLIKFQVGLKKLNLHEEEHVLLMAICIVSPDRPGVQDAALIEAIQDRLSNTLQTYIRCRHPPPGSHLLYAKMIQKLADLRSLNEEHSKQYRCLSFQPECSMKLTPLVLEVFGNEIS
#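 After 23 nl compound addition and a short centrifugation, plates sat for 2 hours at ambient temperature; polarization of fluorescence then indicated loss of VDR binding to peptide SRC2-3.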
# * marks the source's active call; other numbers are inactive results; u = inconclusive; & = joins results of further samples. % is set by controls: 0 for no effect and ±100 for the full control effect; potency is the fitted concentration of half-maximal effect.
SMILES,VDR inhibitor
O=C(COc1ccccc1[N+](=O)[O-])OCC(=O)N1CCC(Cc2ccccc2)CC1,-12%
O=S(=O)(c1ccc2nc(NCc3ccccc3Cl)ccc2c1)N1CCCCC1,7%
c1nc2sc3c(c2c2nnnn12)CCCC3,3%
Cc1ccc(C2C(=O)N(C3CCCC3)CC(=O)N2C2CCCCC2)cc1 (centres undefined),-7%
O=C(NCc1ccccc1)C1CCC(CNS(=O)(=O)c2ccc(Br)s2)CC1 (centres undefined),-7%
CCOC(=O)Cn1nc(-c2ccc(C)cc2)ccc1=O,5%
O=C(Cn1c(-c2cccs2)cc2ccccc21)NCCCN1CCN(c2ccccc2F)CC1,16%
CC(=O)Nc1ccc(S(=O)(=O)NC(CSc2ccc(C(=O)O)cc2[N+](=O)[O-])C(=O)O)cc1 (centres undefined),1%
CN1CCN(CCOc2ccc(Cc3ccccc3)cc2)CC1,-7%
O=C(Cc1ccc(Cl)c(Cl)c1)N1CCOCC1,-4%
Cc1cccc(NC(=O)CSCC(=O)Nc2sccc2C#N)c1,5%
CC(=O)c1c(C)[nH]c(C(=O)COC(=O)CN2C(=O)C3CCCCC3C2=O)c1C (centres undefined),5%
Cc1cc(C(=O)Nc2ccc(C(=O)O)cc2)c(-c2ccccc2)o1,-12%
CCOc1ccc(NC(=O)CCn2ccnc2)cc1,10%
CC(C)C(NC(=O)c1ccco1)C(=O)OCC(=O)N1CC(=O)Nc2ccccc21 (centres undefined),-24%

# In the list so far, these contain a nitro group on carbon:
SMILES,VDR inhibitor
O=C(COc1ccccc1[N+](=O)[O-])OCC(=O)N1CCC(Cc2ccccc2)CC1,-12%
CC(=O)Nc1ccc(S(=O)(=O)NC(CSc2ccc(C(=O)O)cc2[N+](=O)[O-])C(=O)O)cc1 (centres undefined),1%

# Reprinted at random: two records from the list
SMILES,VDR inhibitor
CCOc1ccc(NC(=O)CCn2ccnc2)cc1,10%
O=C(COc1ccccc1[N+](=O)[O-])OCC(=O)N1CCC(Cc2ccccc2)CC1,-12%

# Next structures:
SMILES,VDR inhibitor
O=C(c1cnccn1)N1CCC2(CCCN(c3cccc(-c4ccccc4)c3)C2)CC1,35µM*
Cc1noc(NS(=O)(=O)c2ccc(NC(=O)c3nn(-c4ccccc4)ccc3=O)cc2)c1C,3%
CCn1c(SCC(=O)Nc2cc(Cl)ccc2OC)nnc1C1CC1,-3%
Cc1ccc(NC(=O)CSC2=C(C#N)C(c3ccc4c(c3)OCO4)CC(=O)N2)cc1C (centres undefined),8%
CC1CCCC(C)N1CCCNC(=O)CN1C(=O)c2cccnc2Oc2ccc(Cl)cc21 (centres undefined),-2%
CCC(=O)N(CCC(Cc1ccccc1)c1ccco1)Cc1ccco1 (centres undefined),-28%
Cc1cccc(N/N=C(\C(N)=O)C2=NC(C)(C)Cc3ccccc32)c1,-8%
Clc1ccc(-c2csc(-c3ccno3)n2)cc1,0%
CCN(C(=O)COC(=O)CCCOc1ccccc1)c1c(N)n(Cc2ccccc2)c(=O)[nH]c1=O,1%
CCCNC(=O)C(Cc1ccc(C(F)(F)P(=O)(OCC)OCC)cc1)NC(=O)c1ccc(C#N)cc1 (centres undefined),-16%
C[C@H](CO)N1C[C@H](C)[C@@H](CN(C)S(=O)(=O)c2cccs2)Oc2ccc(NC(=O)NC3CCCCC3)cc2C1=O,-13%
Cc1ccc(S(=O)(=O)N2CCN(c3ccc(C(F)(F)F)cc3[N+](=O)[O-])CC2)cc1,-9%
Cc1ccc(NC(=O)CN(C)C(=O)COC(=O)c2ccc(Cl)cc2O)cc1,4%
CC(C)[C@H](NS(=O)(=O)c1ccc2c(c1)OCCO2)C(=O)OCC(=O)Nc1ccccc1,0%
CCN(CC)c1ccc(C(=O)Nc2cccc(F)c2)cc1,5%
Cc1ccc(NC(=O)CCCCCCCCCCC2COCCO2)c(C)c1 (centres undefined),21%
Cn1nc(-c2ccccc2)cc1NC(=O)Nc1ccc(C(C)(C)C)cc1,-5%
CCOc1ccc(-c2cccc(NS(=O)(=O)c3ccc(Cl)s3)c2)nn1,19%
COc1ccc(-c2oc3ccc(-c4ccc5c(c4)OCO5)cc3c2C#CC2(O)CCCCC2)cc1,-9%
COc1ccccc1NC(=O)C(C)OC(=O)COc1cccc2c1OC(C)(C)C2 (centres undefined),-2%
CC(C)(C)NC(=O)CN(C(=O)CS(=O)CC(=O)Nc1ccc(F)cc1)c1ccccc1F (centres undefined),8%
O=C(NNc1c(Cl)cccc1Cl)c1cccs1,7%
O=C(CCCn1c(=S)[nH]c2ccccc2c1=O)NC1CCCC1,19%
Cc1ccccc1Cn1nc(C)c(NC(=O)c2cc3nc(-c4ccco4)cc(C(F)(F)F)n3n2)c1C,-24%
COCCn1c(SCC(=O)NCc2ccc3c(c2)OCO3)nnc1C(C)C,1%
CC(C)c1ccc(-c2cc(C(=O)N3N=C(C(F)F)CC3(O)C(F)F)c3ccccc3n2)cc1 (centres undefined),-6%
CC(C)(C)OC(=O)C[C@@H]1C/C=C\C[C@H](CC(=O)NCCO)C(=O)N2CCC[C@H]2COC1=O,-15%
CCOC(=O)C1CCCN(Cc2cc(=O)oc3cc(C)c(C(C)C)cc23)C1 (centres undefined),6%
O=C(O)COc1ccccc1-c1ccccc1,-4%
COc1cccc(N2C(=O)C(CC(=O)Nc3ccccc3)N(C3CCCCC3)C2=O)c1 (centres undefined),6%

# Structural class: the entries above with a COOH group
SMILES,VDR inhibitor
CC(=O)Nc1ccc(S(=O)(=O)NC(CSc2ccc(C(=O)O)cc2[N+](=O)[O-])C(=O)O)cc1 (centres undefined),1%
Cc1cc(C(=O)Nc2ccc(C(=O)O)cc2)c(-c2ccccc2)o1,-12%
O=C(O)COc1ccccc1-c1ccccc1,-4%

# New compounds follow.
SMILES,VDR inhibitor
CCCCn1c(N)c(N(CC)C(=O)C(c2ccccc2)c2ccccc2)c(=O)[nH]c1=O,u
COc1ccc(NC(=O)CC2C(=O)N(c3ccc(F)cc3)C(=S)N2NC(=O)c2ccc(Cl)cc2)cc1 (centres undefined),-7%
Cc1ccc(CNC(=O)CSc2nccn(-c3ccc(C)c(F)c3)c2=O)cc1,u
CCOCC,1%
CCn1c(SCC(=O)Nc2ccc3c(c2)OCCO3)nc2c(c1=O)SC(C)C2 (centres undefined),-16%
COc1cc([N+](=O)[O-])ccc1NC(=O)c1nc2ccccc2n(C)c1=O,-8%
Cc1ccc(Cn2c(SCC(=O)NCC3CCCO3)nc3c(sc4ccccc43)c2=O)cc1 (centres undefined),-3%
O=C(NCc1cccnc1)C(=O)NCC1OCCN1S(=O)(=O)c1ccc(Cl)cc1 (centres undefined),2%
COc1ccc(C(CNC(=O)c2ccc(NS(=O)(=O)c3cccc([N+](=O)[O-])c3)cc2)N2CCOCC2)cc1 (centres undefined),17%
Cc1ccccc1Cn1nc(C)c(NC(=O)c2noc3c2CCCC3)c1C,3%
CCN(c1ccccc1C)S(=O)(=O)c1nnc(NC(=O)c2ccco2)s1,-19%&1%
CCOc1ccc(NC(=S)N2CCC(N(C)CC3CCCO3)CC2)cc1 (centres undefined),-2%
CCCCC1CC(CSC(=N)N)OC1=O (centres undefined),16%
O=C(NCCc1ccccc1)c1cccc(N2C(=O)C3CC=CCC3C2=O)c1 (centres undefined),-6%
O=C(Nc1ccc(Br)c(Cl)c1)C1CC1,21%
Cn1c(-c2sccc2OCc2ccc(Cl)cc2Cl)n[nH]c1=S,2%
N#CC1=CC2CN(Cc3ccccc3)C1C1C(=O)N(c3ccccc3)C(=O)C21 (centres undefined),7%
COc1ccccc1Nc1sc(C(=O)c2ccc3c(c2)OCO3)c(N)c1S(=O)(=O)c1ccccc1,6%
COc1ccc(C(=O)NCc2nnc(SCC(=O)Nc3nc4ccccc4s3)o2)cc1OC,-4%
CC(C)CNS(=O)(=O)c1ccc(CCC(=O)NCc2ccco2)cc1,-16%
Cc1ccccc1CN1CCCN(CC(=O)Nc2ccc3c(c2)OCCO3)S1(=O)=O,2%
O=[N+]([O-])c1cccc(C(=Nc2cccc(Cl)c2)NO)c1,0%
CCC[N+](CC#Cc1ccccc1)(CCC)CC(=O)OCC,-6%
Cc1ccc(N2CC(C(=O)OCC(=O)c3ccc[nH]3)CC2=O)cc1 (centres undefined),4%
CCOC(=O)CSc1nc(C)cc(=O)[nH]1,-3%
COc1ccc(N2CCN(CCNC(=O)Nc3cc(Cl)ccc3Cl)CC2)cc1,3%
COc1ccc(OCCN2CCN(C(=O)c3ccc(OC)c(OC)c3)CC2)cc1,-2%
O=C(O)CCN(CC(=O)c1ccc(Cl)cc1)S(=O)(=O)c1ccc([N+](=O)[O-])cc1,8%
O=c1cc(CN2CCN(S(=O)(=O)c3ccc(Cl)cc3)CC2)nc2sc(-c3ccccc3F)nn12,16%
COC(=O)c1ccccc1NC(=O)CSc1nncn1-c1cccnc1,-6%
O=C1NC2(CCOc3ccccc32)C(=O)N1CC(=O)N(Cc1ccccc1)C1CCS(=O)(=O)C1 (centres undefined),5%
COc1ccc(C(=O)CCC(C)(C)[N+](=O)[O-])cc1,-27%
COc1ccccc1NC(=O)c1sc2nc(C)cc(C)c2c1N,-13%
CC(C)Oc1ccc(Nc2ncnc3ccccc23)cc1,9%
Cc1ccc(CCN2CC(C(=O)NCCc3ccccc3)CC2=O)cc1 (centres undefined),0%
Fc1ccc(COc2ccccc2C(=S)N2CCCC2)cc1,50µM*
Cn1c(SCC(=O)NC2CCCC2)nnc1-c1ccncc1,0%
Cc1cc(SCC(=O)Nc2ccccc2)n2ncc(-c3ccccc3)c2n1,9%
CCOC(=O)CN(C(=O)CSc1nnc2c(n1)[nH]c1ccccc12)c1ccccc1,10%
Cc1cc(C(=O)OCC(=O)N2CCc3ccccc32)ccc1[N+](=O)[O-],-1%
CCOC(=O)c1ccc(NC(=O)Nc2cccc(OCc3cc(=O)n4ccc(C)cc4n3)c2)cc1,2%
COC(=O)c1c(C)nc(C)c(C(=O)OC)c1-c1ccc(OC)cc1,15%
CCCCNc1ccc2oc(-c3ccc(OC)cc3)c(-c3ccc(OC)c(F)c3)c2c1,2%
COC(=O)Cc1c(C)c2ccc(OCC(=O)c3ccc(OC)c(OC)c3)cc2oc1=O,-1%
Cc1ccc2sc(N3CCN(C(=O)CCS(=O)(=O)c4ccc(F)cc4)CC3)nc2c1C,4%
Cc1ccccc1-n1ncc2c(SCC(=O)N3c4ccccc4CC3C)ncnc21 (centres undefined),-10%
Cc1ccc(CN2CCN(Cc3cccn3-c3ccccn3)CC2CCO)cc1 (centres undefined),-1%
CC(C)CN(C(=O)COC(=O)/C=C/c1ccccc1)C1CCS(=O)(=O)C1 (centres undefined),4%
COC(=O)C1CCN(C(=O)COC(=O)CNS(=O)(=O)c2ccc(SC)c([N+](=O)[O-])c2)CC1,-10%
FC(F)(F)c1cc(-c2ccco2)nc(N2CCN(Cc3ccccc3)CC2)n1,-5%
Cc1nn(CC(=O)N2CCN(c3ccccc3)CC2)c(=O)c2ccccc12,-16%
O=C(O)CSC1=NC(=Nc2ccc(Cl)cc2)C2(CCCCC2)N1c1cccc(C(=O)O)c1,7%
CC(C)c1nnc(NC(=O)CCC(=O)N2CCN(c3ccccc3F)CC2)s1,-3%
O=c1c2ccccc2sc2ccc(C#CC3(O)CCCCC3)cc12,-18%
COc1ccc(C2CC(c3ccc(Cl)cc3)=NN2c2ccc(S(N)(=O)=O)cc2)cc1 (centres undefined),-15%
O=C(CN1CCC(C(=O)c2ccc(Cl)cc2)CC1)NC1CCCC1,0%
CCC(=O)Nc1nc2nc(C)cc(=O)n2[nH]1,-6%
O=C(NCc1ccco1)C1CCCN(S(=O)(=O)c2ccccc2)C1 (centres undefined),14%
O=C(CSCc1ccccc1)N1CCN(c2cccc(C(F)(F)F)c2)CC1,-1%
COc1cc(C(=O)N/N=C\c2ccccc2)c([N+](=O)[O-])c(OC)c1OC,1%

# In the list so far, 2 have bromine.
SMILES,VDR inhibitor
O=C(NCc1ccccc1)C1CCC(CNS(=O)(=O)c2ccc(Br)s2)CC1 (centres undefined),-7%
O=C(Nc1ccc(Br)c(Cl)c1)C1CC1,21%

# Other structures:
SMILES,VDR inhibitor
CCN(CC)C(=O)c1c(NC(=O)c2ccccc2)sc(C)c1C,2%
Cc1ccc(S(=O)(=O)N2CCC(=O)N(C(CO)C(C)C)CC2)cc1 (centres undefined),u
CCN(CC)c1ccc(CN(C(=O)c2cc(=O)c3ccccc3o2)C2CCS(=O)(=O)C2)cc1 (centres undefined),-2%
O=c1c(-c2ccc3c(c2)OCCO3)coc2cc(O)cc(O)c12,-7%
CC1Oc2ccccc2N(Cc2ccc(F)cc2)C1=O (centres undefined),-8%
COc1ccc(NC(=O)COC(=O)[C@@H]2CCCN2S(=O)(=O)c2ccccc2F)c(OC)c1,5%
CCOC(=O)C1CCCN(c2nc3c(S(=O)(=O)c4ccc(CC)cc4)nnn3c3ccsc23)C1 (centres undefined),-10%
O=C(CSc1ccc(-c2ccco2)nn1)NCc1ccc2c(c1)OCO2,0%
COc1ccc(NC(=O)C2CCN(c3cc(-c4ccccc4)nc4ncnn34)CC2)cc1OC,7%
CC(C)OC(=O)Nc1ccc2c(c1)N(C(=O)CCN1CCOCC1)c1ccccc1CC2,7%
COc1ccccc1NC(=O)c1cc2c(CO)cnc(C)c2oc1=Nc1ccccc1,-6%
O=c1c2c(n3cnnc3n1-c1ccccc1)-c1ccccc1CC21CCCCC1,4%

# Screening data: PubChem, National Center for Advancing Translational Sciences (NCATS)

# This is a subset (hit frequency here may not be typical).
